AmpC inh no det – inhibitors of E. coli AmpC beta-lactamase without detergent; P00811; AmpC nitrocefin hydrolysis, absorbance 480 nm, no detergent; potencies from a single point are estimates; Potency, µM (top dose mostly 28.7 µM), for inactives: top-dose activity change, negative = inhibition; actives 1.8% (n = 71,000); AID 585; active = falling curve, for most hits resting on a single point; inconclusive = weak or doubtful change; inactive = flat or rising curve; also: % of control where 0% means no effect; about half of the hits show no inhibition at the top dose; a quarter of the inactives give rising signals
Target sequence (P00811 whole entry, looked up): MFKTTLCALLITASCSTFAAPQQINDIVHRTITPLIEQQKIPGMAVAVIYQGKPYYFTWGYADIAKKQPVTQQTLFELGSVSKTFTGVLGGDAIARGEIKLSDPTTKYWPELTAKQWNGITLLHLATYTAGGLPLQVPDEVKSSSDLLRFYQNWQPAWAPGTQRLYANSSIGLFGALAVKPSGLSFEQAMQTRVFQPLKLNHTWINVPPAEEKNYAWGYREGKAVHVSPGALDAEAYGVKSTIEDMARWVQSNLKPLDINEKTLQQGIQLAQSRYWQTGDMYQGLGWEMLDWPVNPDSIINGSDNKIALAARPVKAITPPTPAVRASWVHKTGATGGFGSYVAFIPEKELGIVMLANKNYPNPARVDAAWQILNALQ
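AmpC, 20 mM phosphate pH 7.0; 15 min cpd preinc, RT; start with nitrocefin (800 uM stock); A480 kinetic read, 20 s intervals, 4 min. No-enzyme wells = negative control.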
An asterisk follows results filed as active; & = joins results of further samples; [ ] = another dose, or the depositor's remark. Potency is read from the fitted curve at half-maximal effect. Not all compounds are listed, so the mix of outcomes need not match the whole.

SMILES	AmpC inh no det
CCNc1nnc(-c2ccc(C)cc2)o1	-1%
Clc1ccc(-c2nnc3sc(-c4ccc(Br)o4)nn23)cc1	94%
CCc1cccc(CC)c1NC(=O)CSc1nnc(C(C)C)n1CC	12%
COCCCN(C(C)=O)c1nc(-c2ccc(OC)cc2)cs1	86%
Cc1c(NC(=O)C2CCCN(S(=O)(=O)c3cnc[nH]3)C2)c(=O)n(-c2ccccc2)n1C (centres undefined)	-4%
COc1ccc2cc3cc(C(=O)NCCN4CCN(Cc5ccccc5)CC4)oc3nc2c1	115%
CC1CCCN(C(=O)C2CCN(CCCc3ccccc3)CC2)C1 (centres undefined)	37%
CCS(=O)(=O)N1CCC(C(=O)NCc2ccc(F)cc2)CC1	-14%
CC(C)(C)c1ccc(OCC2CO2)cc1 (centres undefined)	-3%
Nc1cc(Cl)ccc1O	-24%
CCS(=O)(=O)N(C)[C@@H]1c2cc(C#N)ccc2OC(C)(C)[C@H]1O	22%&6%
COc1cc(NC(=O)CSc2nnc(C)s2)cc(OC)c1	-5%
CCOC(=O)Cc1csc(NC(=O)c2ccco2)n1	0%
C=CCn1cc(C(=O)NCCCOCC)c(=O)c2cc(S(=O)(=O)N(CC)CC)ccc21	98%
CCC(=O)c1cn(Cc2ccccc2C#N)c2ccccc12	22%
O=c1c(-c2ccc(F)c(F)c2)nc2cncnc2n1C1CC1	12%
CC(C)(O)CCC(C)(C)O	-2%
CCCCN1C(=O)/C(=C2\SC(N3CCCCC3)=NC2=O)c2ccccc21	0%
Cc1cc(C)n(-c2ccc(C(=O)N3CCc4ccccc43)cc2)n1	29%
COc1ccc(-c2nnc(SCC(=O)NCc3ccco3)o2)cc1	-4%
CCOc1cccc(OCCCCN2CCCCC2)c1	-4%
O=c1c2nnn(Cc3ccccc3)c2ncn1-c1ccccc1	-4%
COC(=O)CN(c1ccccc1)S(=O)(=O)c1ccc(F)cc1	4%
CC(=O)O[C@@H]1C(=O)[C@@]2(C)[C@H](O)C[C@H]3OC[C@]3(OC(C)=O)[C@@H]2[C@H](OC(=O)c2ccccc2)[C@@]2(O)C[C@H](OC(=O)[C@@H](O)[C@@H](NC(=O)c3ccccc3)c3ccccc3)C(C)=C1C2(C)C (stereo in doubt)	123%[12.8 µM]

A section from further up:
SMILES	AmpC inh no det
COc1ccc2cc3cc(C(=O)NCCN4CCN(Cc5ccccc5)CC4)oc3nc2c1	115%
CC1CCCN(C(=O)C2CCN(CCCc3ccccc3)CC2)C1 (centres undefined)	37%
CCS(=O)(=O)N1CCC(C(=O)NCc2ccc(F)cc2)CC1	-14%
CC(C)(C)c1ccc(OCC2CO2)cc1 (centres undefined)	-3%
Nc1cc(Cl)ccc1O	-24%
CCS(=O)(=O)N(C)[C@@H]1c2cc(C#N)ccc2OC(C)(C)[C@H]1O	22%&6%
COc1cc(NC(=O)CSc2nnc(C)s2)cc(OC)c1	-5%
CCOC(=O)Cc1csc(NC(=O)c2ccco2)n1	0%
C=CCn1cc(C(=O)NCCCOCC)c(=O)c2cc(S(=O)(=O)N(CC)CC)ccc21	98%
CCC(=O)c1cn(Cc2ccccc2C#N)c2ccccc12	22%
O=c1c(-c2ccc(F)c(F)c2)nc2cncnc2n1C1CC1	12%
CC(C)(O)CCC(C)(C)O	-2%
CCCCN1C(=O)/C(=C2\SC(N3CCCCC3)=NC2=O)c2ccccc21	0%
Cc1cc(C)n(-c2ccc(C(=O)N3CCc4ccccc43)cc2)n1	29%
COc1ccc(-c2nnc(SCC(=O)NCc3ccco3)o2)cc1	-4%
CCOc1cccc(OCCCCN2CCCCC2)c1	-4%
O=c1c2nnn(Cc3ccccc3)c2ncn1-c1ccccc1	-4%
COC(=O)CN(c1ccccc1)S(=O)(=O)c1ccc(F)cc1	4%
CC(=O)O[C@@H]1C(=O)[C@@]2(C)[C@H](O)C[C@H]3OC[C@]3(OC(C)=O)[C@@H]2[C@H](OC(=O)c2ccccc2)[C@@]2(O)C[C@H](OC(=O)[C@@H](O)[C@@H](NC(=O)c3ccccc3)c3ccccc3)C(C)=C1C2(C)C (stereo in doubt)	123%[12.8 µM]

Next part:
SMILES	AmpC inh no det
CC(C)(Oc1ccc([C@@H]2CC2(Cl)Cl)cc1)C(=O)O	-4%[12.8 µM]
O=C(Cn1c(-c2cncs2)nc2ccccc21)NCCc1ccccc1	10%
OC1CCN(c2ncnc3nc[nH]c23)CC1	12%
CCc1ncc(C(O)c2cccc3ccccc23)n1C (centres undefined)	10%
O=C(c1ccc(N2CN(C(=O)c3ccco3)c3nc4ccccc4nc32)cc1)N1CCOCC1	124%
O=[N+]([O-])c1cccc(I)c1	-4%
CCN(CC(=O)NC1CCS(=O)(=O)C1)c1nc(-c2ccccc2)nc2ccccc12 (centres undefined)	56%
COc1ccc2cc(C3(C)NC(=O)N(CC(=O)NCc4ccco4)C3=O)ccc2c1 (centres undefined)	36%
CCOC(=O)NC(Nc1ncccn1)(C(F)(F)F)C(F)(F)F	-4%
CCOC(=O)N1CCN(S(=O)(=O)c2ccc(C)cc2)C1c1ccccc1 (centres undefined)	50%
Cn1cccc1Cc1nnc(SCC(=O)NC2CCCC2)n1CCc1ccccc1	101%
CC(C)(C)c1ccc(OC(=O)Nc2ccc(O)c(C(=O)O)c2)cc1	-8%[5.75 µM]
CC(=O)c1c(C)n(-c2ccccc2)c2ccc(O)cc12	-4%
COCCNS(=O)(=O)c1ccc2c(c1)C(=O)c1cc(S(=O)(=O)NCCOC)ccc1-2	26%
CCc1ccccc1N1C(=O)C2CC=CCC2C1=O (centres undefined)	10%
CCOc1ccc(CC(=O)NCc2cn3c(C)csc3n2)cc1	8%
CCOc1nc(OCC)nc(N2CCC(C)CC2)n1	18%
Cc1cnc(C(=O)Nc2ccc(C(=O)N(C)C3CCCCC3)cc2)cn1	14%
O=C(c1cc(S(=O)(=O)N2CCOCC2)ccc1F)N1CCC2(CC1)OCCO2	7%
O=C(O)c1cc(O)ccc1-c1ccc(O)cc1	-1%
O=C(O)C1CCCCC1C(=O)Nc1ccccn1 (centres undefined)	2%
Cc1oc(-c2ccccc2F)nc1CS(=O)CC(=O)N1CCC2(CC1)OCCO2 (centres undefined)	15%
CCCCC(c1nnnn1CCOC)N1CCN(c2cccc(OC)c2)CC1 (centres undefined)	154%
COc1ccc(NC(=O)C2CC(c3cc(OC)c(OC)c(OC)c3)=NO2)cc1OC (centres undefined)	109%
COc1ccccc1CN(CC(=O)NCC1CCCO1)C(=O)CNS(=O)(=O)c1ccc(C)cc1 (centres undefined)	81%
Cc1nc2nc(CSc3nnc(C)s3)cc(=O)n2[nH]1	-8%
Cc1cccc(CNc2ncncc2-c2ccccc2Cl)c1	28%
COc1ccc2c(c1)CC1(CN2C)C(=O)NC(=O)N(CCc2ccccc2)C1=O (centres undefined)	33%
CCCCOc1ccc(C(=O)NC)cc1	11%
Cc1noc(C)c1-c1nccc(N2CCOCC2)n1	4%
CC1CC(C)CN(C(=O)C(NS(=O)(=O)c2ccc3c(c2)oc(=O)n3C)C(C)C)C1 (centres undefined)	4µM*[single pt active]
Cc1cc(NC(=O)Cn2c(=O)c3c(ncn3CCC(C)C)n(Cc3ccccc3)c2=O)no1	21%
OC(c1cccs1)c1nccc2ccccc12 (centres undefined)	-11%
c1cc(C2CCCCC2)ccc1Oc1nc(N2CCOCC2)nc(N2CCOCC2)n1	73%
Cc1nc(SCC(=O)NCc2ccc3c(c2)OCO3)c(C#N)c2c1CCCC2	-8%
NC(N)=NOCC[C@H](N)C(=O)O	-9%
CCCCCCCCCCCOC(=O)c1ccccc1C(=O)OCCCCCCCCCCC	-14%
CN(C1CCCCC1)S(=O)(=O)c1ccc2c(c1)c(=O)c(C(=O)NCCCN1CCCC1)cn2C	93%
Cc1nc2oc3ccccc3c(=O)c2c(=O)n1Cc1ccccc1	2%
CC(C)OCCCn1c(=NC(=O)c2ccncc2)c(C#N)cc2c(=O)n3ccccc3nc21	60%
Cc1ccc(NC2=NC(c3ccc(O)cc3)n3c(nc(C)cc3=O)N2)cc1 (centres undefined)	22%
O=C(Cc1ccccc1)Nn1cnc2ccccc21	-10%
O=C(Cn1nnc2ccccc21)C1CC1	5%
COCCn1c(=O)c(-c2cc(F)cc(F)c2)nc2cnc(N3CCNCC3)nc21	52%
CCOC(=O)N1CCN(c2ncnc3nc[nH]c23)CC1	-1%
O=C(Cc1nn[nH]n1)NCCC1=CCCCC1	-5%
CC(c1ccco1)N(C(=O)COc1ccc(Cl)cc1)c1ccccn1 (centres undefined)	47%
Cc1ccccc1-c1nc(NC2CC2)c2ccccc2n1	-7%
CCN(CC)c1ncnc2c1ncn2[C@@H]1O[C@@H](COP(=O)(O)OP(=O)(O)C(Br)(Br)P(=O)(O)O)[C@H](O)[C@@H]1O	-3%
CS(=O)(=O)N(CC(=O)N1CCN(Cc2ccccc2)CC1)C1CCCCC1	64%
Cc1ccccc1-c1ccc2ncnc(NCc3cccnc3)c2c1	76%
CC(NC(=O)Nc1ccc(F)cc1F)c1ccncc1 (centres undefined)	-12%
CNc1nc(-c2ccoc2)nc2ccccc12	44%
CCc1ccc(C2C(C#N)=C(N)SC(N)=C2C#N)s1	-22%
Cn1c(C(=O)NCCCN2CCN(c3cccc(Cl)c3)CC2)cc2c(=O)n(C)c3ccccc3c21	4µM*[single pt active]
O=C(c1ccco1)N1CCC2(CC1)CCN(c1cccc(-c3ccccc3)c1)CC2	125%
COc1ccccc1NC(=O)C1=C(C)Nc2ncnn2C1c1cccs1 (centres undefined)	10%
CCC(=Nc1ccc2c(c1)CCC2)c1c(O)n(C2CCCCC2)c(=O)[nH]c1=O	2%
COc1cccc(-c2nc(CS(=O)CC(=O)NCc3ccc4c(c3)OCO4)c(C)o2)c1 (centres undefined)	73%
COc1ccc(Cn2nnnc2C(c2ccc(F)cc2)N2CCN(C3CCCC3)CC2)cc1 (centres undefined)	50%
Going on with the list.
SMILES	AmpC inh no det
C=CCOc1ccc(/C(O)=C2\C(=O)C(=O)N(CCOC)C2c2cccnc2)cc1 (centres undefined)	5%
O=C(O)/C=C/c1ccc(/C=C/C(=O)O)cc1	-8%
CC1(C)NC(=O)N(CC(O)CNC23CC4CC(CC(C4)C2)C3)C1=O (centres undefined)	0%
Brc1cnn(-c2nc(N3CCOCC3)nc(N3CCOCC3)n2)c1	38%
COc1ccc(S(=O)(=O)NC(CC(=O)NCc2ccco2)c2ccco2)cc1 (centres undefined)	-11%
CNC(=O)[C@@H]1O[C@@H](n2cnc3c(NCc4ccc(N)cc4)ncnc32)[C@@H](O)[C@H]1O	-2%
Cc1cc(C(=O)Nc2cccc3ncccc23)no1	-11%
Cc1ccc(S(=O)(=O)N(C)c2ccc(C(=O)O)cc2)cc1	8%
Cc1cc(-c2ccc(N=Nc3cc(S(=O)(=O)O)c4ccccc4c3N)c(C)c2)ccc1N=Nc1cc(S(=O)(=O)O)c2ccccc2c1N	5µM*
COc1cccc(-n2cc3c(=O)n(C)c(=O)n(C)c3c2)c1	12%
CC(C)CNC(=O)CN(C1CCCCC1)S(C)(=O)=O	18%
COC(=O)[C@@]1(Cc2ccc(F)cc2)[C@H]2c3cc(C(=O)N(C)C)n(Cc4ccsc4Br)c3C[C@H]2CN1C(=O)c1ccccc1	110%
CCC(=O)Nc1ccc2nc(C3CC3)n(Cc3ccccc3)c(=O)c2c1	-1%
CC(=O)[C@H]1CC[C@H]2[C@@H]3CCC4=CC(=O)CC[C@]4(C)[C@H]3CC[C@]12C	82%&58%
COc1ccc(C(=O)N2CCCC2=O)cc1	-8%&12%&-1%
OC1(CN2CCOCC2)C2CN3CCN(C2)CC1(c1ccccc1)C3 (centres undefined)	-3%
CCOc1cccc(NC(=O)C2CCCN(S(=O)(=O)c3ccc(-n4cnnn4)cc3)C2)c1 (centres undefined)	18%
Cc1occc1-c1nnc(SCC(=O)NCc2cccs2)n1CC1CCCO1 (centres undefined)	10%
O=C(Oc1ccc2c(c1)OCC2=O)c1ccccc1	-5%
O=C(Cn1cnc2c(cnn2-c2ccccc2)c1=O)NCc1ccccc1	-17%
COc1cccc(C(=O)N2CCN(S(=O)(=O)Cc3ccccc3)CC2)c1	24%
CCC(C)NC(=O)c1c(N)n(/N=C/c2ccccn2)c2nc3ccccc3nc12 (centres undefined)	73%
C[C@H](NC(=O)OC(C)(C)C)C(=O)NCC1CCC(C(=O)O)CC1 (some centres undefined)	-8%
Cc1nn(C)c(C)c1S(=O)(=O)N1CCC(C(=O)NC(C)c2ccccc2)CC1 (centres undefined)	31%
Cc1ccc(S(=O)(=O)NCC2CCC(C(=O)NCc3ccco3)CC2)cc1 (centres undefined)	11%
O=S(=O)(NC1CCN(Cc2ccccc2)CC1)c1cccc2cccnc12	-2%
Cc1n[nH]c(C)c1S(=O)(=O)N1CCCC(C(=O)N2CCN(c3ccc(Cl)cc3)CC2)C1 (centres undefined)	138%
CSc1c(CC(=O)NCCO)n(C)c2ccccc12	14%
COC(=O)c1ccc2c(=O)n(Cc3ccc4c(c3)OCO4)c(SCC(=O)N3CCCC3)nc2c1	108%
CCOc1cc(C)c(Cl)cc1S(=O)(=O)N1CCCC1	102%
CC1CCCCC1NC(=O)CN1CCC(O)(c2ccc(F)cc2)CC1 (centres undefined)	61%
O=C1COc2ccc(C(=O)COC(=O)c3ccc4ccccc4n3)cc2N1	14%
COc1ccccc1NS(=O)(=O)c1ccc(NC(=O)CCNC(=O)c2ccco2)cc1	11%
O=C(CN1CCOc2ccccc21)NCc1ccc(F)cc1	20%
Cc1ccc(NC(=O)CN(C)C(=O)CCCN2C(=O)c3ccccc3C2=O)cc1	52%
CCOc1ccccc1C1SCC(=O)Nc2c1c(=O)[nH]n2C(CC)CC (centres undefined)	82%
CCOC(=O)c1cc(-c2nnc(-c3ccc(Oc4ccccc4)cc3)o2)c(C)nc1C	-4%
CCOC(=O)c1ccccc1NC(=O)c1ccccc1N(C)S(C)(=O)=O	48%
CCOC(=O)c1[nH]c(C)c(C(=O)NCCc2ccc(OC)cc2)c1C	3%

Screening data: PubChem BioAssay, National Center for Advancing Translational Sciences (NCATS)
